High-throughput results: PubChem BioAssay, Broad Institute
Vaccinia stage = Vaccinia orthopox stage-specific inhibition. actives 0.01% (n = 89,000). AID 1053133. activity change (mCherry), % (no concentration beside the values). Vaccinia-infected cells, mCherry/Venus stage reporter fluorescence; active compounds read low; some inactives read as strong as hits;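 active means mCherry past -33% and 40 or more points under the early reporter, replicates agreeing; inconclusive means past -33% without that gap or agreement; tested in A549 cells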;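 further: scaled between vehicle wells and reference inhibitor wells; 23 nL library stock went into each well; one replicate is shown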
Vaccinia stage Venus = also measured in Vaccinia stage; calls as there; activity change (Venus), %; measured here: Venus reporter, other viral stage;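 negative = less Venus signal; first of two replicates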
Active calls of the source: *. Only part of the results is shown, so the mix of outcomes need not match the whole.

Results for CCCNC(=O)Nc1ccc2c(c1)C(=O)N(C)C[C@H](OC)[C@H](C)CN(C(=O)C1CC1)[C@H](C)CO2 ?
Vaccinia stage: -4; Vaccinia stage Venus: -11

How did N#C[C@H]1[C@@H](c2ccccc2-c2ccc(F)cc2)[C@@H](CO)N1C(=O)NC1CCCC1 do in these assays?
Vaccinia stage: -14; Vaccinia stage Venus: -9

What do the screens show for `CNC(=O)C[C@H]1CC[C@@H]2[C@H](COc3ccc(NC(=O)c4ccccc4OC)cc3C(=O)N2C)O1`?
Vaccinia stage: 2; Vaccinia stage Venus: 5

How did CO[C@H]1CC[C@H]2CCOc3ccc(C#N)cc3C(=O)N(C)C[C@H](C)C(=O)N(C)C[C@H]1O2 do in these assays?
Vaccinia stage: 13; Vaccinia stage Venus: 1

What do the screens show for `C[C@@H]1CN([C@H](C)CO)C(=O)c2cc(NS(=O)(=O)c3cccs3)ccc2O[C@@H]1CN(C)S(=O)(=O)c1cn(C)cn1`?
Vaccinia stage: 9; Vaccinia stage Venus: 9

How did COc1ccc(NC(=O)Nc2ccc3c(c2)C(=O)N([C@@H](C)CO)C[C@H](C)[C@@H](CN(C)S(=O)(=O)c2ccccc2)O3)cc1 do in these assays?
Vaccinia stage: 7; Vaccinia stage Venus: 5

How did COc1ccc(C#Cc2ccc([C@@H]3[C@H](CO)N4CCCCN(C(=O)Nc5ccccc5)C[C@@H]34)cc2)cc1 do in these assays?
Vaccinia stage: inconclusive

Results for C[C@H]1CN([C@@H](C)CO)C(=O)c2cc(N(C)C)ccc2O[C@H]1CN(C)C(=O)Nc1ccc(C(F)(F)F)cc1 ?
Vaccinia stage: -9; Vaccinia stage Venus: -4

Results for C[C@@H]1CN([C@H](C)CO)C(=O)c2c(c3ccccc3n2C)-c2ccccc2CO[C@@H]1CN(C)Cc1cccc2c1OCCCO2 ?
Vaccinia stage: inconclusive

What do the screens show for `Cc1ccc(S(=O)(=O)Nc2cccc3c2O[C@@H](CN(C)C(=O)Nc2ccc4c(c2)OCO4)[C@@H](C)CN([C@@H](C)CO)C3=O)cc1`?
Vaccinia stage: 2; Vaccinia stage Venus: 4

What do the screens show for `O=C(Nc1ccccc1)N[C@H]1CC[C@H](CCNS(=O)(=O)c2ccccc2F)O[C@@H]1CO`?
Vaccinia stage: 0; Vaccinia stage Venus: 1

How did C[C@@H]1CCCCO[C@@H](CN(C)S(=O)(=O)c2ccc(Cl)cc2)[C@H](C)CN([C@@H](C)CO)C(=O)c2cc(NC(=O)CCCN(C)C)ccc2O1 do in these assays?
Vaccinia stage: 6; Vaccinia stage Venus: -5

What do the screens show for `CCN1[C@H](C(=O)N2CCc3ccccc3C2)[C@@H](CO)[C@@H]2Cn3c(cccc3=O)[C@@H]21`?
Vaccinia stage: 13; Vaccinia stage Venus: 17

How did C[C@H]1CN([C@@H](C)CO)C(=O)c2cc(NC(=O)CCC(F)(F)F)ccc2O[C@@H]1CN(C)C(=O)Nc1ccc(F)cc1 do in these assays?
Vaccinia stage: 3; Vaccinia stage Venus: 1

What do the screens show for `CCCNC(=O)N[C@@H]1CC[C@H](CC(=O)NC2CCCCC2)O[C@@H]1CO`?
Vaccinia stage: -11; Vaccinia stage Venus: -7

Results for COCC(=O)N(C)C[C@H]1Oc2cc(-c3ccc(OC)cc3)ccc2S(=O)(=O)N([C@@H](C)CO)C[C@H]1C ?
Vaccinia stage: 4; Vaccinia stage Venus: -1

What do the screens show for `CC(C)CC#Cc1cnc2c(c1)C(=O)N([C@H](C)CO)C[C@@H](C)[C@@H](CN(C)S(C)(=O)=O)O2`?
Vaccinia stage: 8; Vaccinia stage Venus: 9

How did C[C@H](NC(=O)C[C@@H]1C=C[C@@H](NS(=O)(=O)c2cccc(F)c2)[C@H](CO)O1)c1ccccc1 do in these assays?
Vaccinia stage: 13; Vaccinia stage Venus: 14

Results for Cc1noc(C)c1NC(=O)N(C)C[C@H]1Oc2c(NC(=O)Nc3ccc(F)cc3)cccc2C(=O)N([C@@H](C)CO)C[C@H]1C ?
Vaccinia stage: -2; Vaccinia stage Venus: 3

How did O=C(c1ccccn1)N1C[C@@H]2[C@H](c3ccccc31)[C@H](CO)N2C(=O)C1CCCCC1 do in these assays?
Vaccinia stage: 8; Vaccinia stage Venus: 4

Results for C[C@@H]1CN([C@H](C)CO)C(=O)c2cc(NC(=O)NC3CCCCC3)ccc2O[C@H]1CN(C)S(=O)(=O)c1ccccc1 ?
Vaccinia stage: 8; Vaccinia stage Venus: 3

Results for Cc1noc(C)c1NC(=O)Nc1ccc2c(c1)C(=O)N([C@H](C)CO)C[C@H](C)[C@H](CN(C)C(=O)C1CCCCC1)OCCCC[C@@H](C)O2 ?
Vaccinia stage: 6; Vaccinia stage Venus: 6

Results for C[C@@H]1CN([C@H](C)CO)S(=O)(=O)c2ccc(-c3cccc(C#N)c3)cc2O[C@@H]1CN(C)C(=O)Nc1ccccc1F ?
Vaccinia stage: -9; Vaccinia stage Venus: -12

How did O=C([C@H]1[C@H](CO)[C@H]2Cn3c(ccc(-c4cccnc4)c3=O)[C@H]2N1CC1CC1)N1CCCCC1 do in these assays?
Vaccinia stage: -12; Vaccinia stage Venus: 2

What do the screens show for `C[C@@H]1CN([C@H](C)CO)C(=O)c2cccc(NC(=O)Nc3ccc(F)cc3)c2O[C@@H]1CN(C)C(=O)Nc1ccc(C(F)(F)F)cc1`?
Vaccinia stage: inconclusive

How did C[C@H](CO)N1C[C@H](C)[C@@H](CN(C)S(C)(=O)=O)Oc2c(cccc2N(C)C)C1=O do in these assays?
Vaccinia stage: 11; Vaccinia stage Venus: 0

What do the screens show for `COCC(=O)N1[C@H](C#N)[C@@H](c2ccccc2-c2cccc(F)c2)[C@H]1CO`?
Vaccinia stage: 3; Vaccinia stage Venus: -5

Results for CN1C(=O)c2cc(NC(=O)c3ccc(Cl)cc3)ccc2OC[C@@H]2O[C@H](CC(=O)O)CC[C@H]21 ?
Vaccinia stage: 13; Vaccinia stage Venus: 12

What do the screens show for `O=C(C[C@@H]1C[C@H]2c3cc(NC(=O)Nc4ccccc4F)ccc3O[C@H]2[C@H](CO)O1)NCc1cc(F)ccc1F`?
Vaccinia stage: inconclusive

How did O=C(C[C@H]1C=C[C@H](NS(=O)(=O)c2ccc(F)cc2)[C@@H](CO)O1)N1CCc2ccccc2C1 do in these assays?
Vaccinia stage: 6; Vaccinia stage Venus: 6

What do the screens show for `C[C@@H]1CN([C@H](C)CO)S(=O)(=O)c2ccc(C#Cc3ccncc3)cc2O[C@@H]1CN(C)C(=O)C1CCC1`?
Vaccinia stage: inconclusive

Results for COc1ccc(S(=O)(=O)N(C)C[C@@H]2Oc3ccc(N(C)C)cc3C(=O)N([C@@H](C)CO)C[C@H]2C)cc1 ?
Vaccinia stage: -2; Vaccinia stage Venus: -4

How did Cc1ccc(-c2ccc3c(c2)O[C@@H](CN(C)C(=O)Nc2ccccc2)[C@@H](C)CN([C@H](C)CO)S3(=O)=O)cc1 do in these assays?
Vaccinia stage: inconclusive

How did C[C@H](CO)N1C[C@H](C)[C@H](CN(C)Cc2ccc(-c3ccccc3)cc2)Oc2cc(C#CC(C)(C)O)ccc2S1(=O)=O do in these assays?
Vaccinia stage: -29; Vaccinia stage Venus: -17

How did CC(C)C#Cc1ccc2c(c1)O[C@@H](CN(C)C(=O)Nc1ccccc1)[C@H](C)CN([C@H](C)CO)S2(=O)=O do in these assays?
Vaccinia stage: inconclusive

Results for Cc1noc(C)c1S(=O)(=O)Nc1ccc2c(c1)C(=O)N([C@@H](C)CO)C[C@@H](C)[C@H](CN(C)Cc1ccncc1)O2 ?
Vaccinia stage: 9; Vaccinia stage Venus: 16

Results for O=C(Nc1ccccc1)N1CC(=O)N2[C@@H](CO)[C@H](c3ccc(C#Cc4cccnc4)cc3)[C@@H]2C1 ?
Vaccinia stage: 14; Vaccinia stage Venus: 10

Results for C[C@H]1CN([C@@H](C)CO)C(=O)c2cc(NC(=O)Nc3cccc4ccccc34)ccc2O[C@@H]1CN(C)Cc1ccncc1 ?
Vaccinia stage: 11; Vaccinia stage Venus: -9

What do the screens show for `CCCC#Cc1ccc2c(c1)O[C@H](CN(C)CC1CCOCC1)[C@@H](C)CN([C@@H](C)CO)S2(=O)=O`?
Vaccinia stage: inconclusive

Results for O=C(NC1CCCCC1)N[C@@H]1CC[C@@H](CCNS(=O)(=O)c2ccccc2)O[C@@H]1CO ?
Vaccinia stage: 1; Vaccinia stage Venus: 4

What do the screens show for `CC(C)NC(=O)Nc1ccc2c(c1)CC(=O)N([C@H](C)CO)C[C@H](C)[C@H](CN(C)S(C)(=O)=O)O2`?
Vaccinia stage: 2; Vaccinia stage Venus: 6

What do the screens show for `O=C(Cc1ccccn1)NCC[C@H]1CC[C@@H](NS(=O)(=O)c2ccc(Cl)cc2)[C@@H](CO)O1`?
Vaccinia stage: 0; Vaccinia stage Venus: 6

What do the screens show for `COc1ccc(NC(=O)N(C)C[C@@H]2Oc3ccc(NS(=O)(=O)c4ccc(F)cc4)cc3CC(=O)N([C@H](C)CO)C[C@H]2C)cc1`?
Vaccinia stage: -1; Vaccinia stage Venus: -7

Results for Cc1ccc(S(=O)(=O)N(C)C[C@H]2Oc3ccc(NC(=O)CCCCCC(=O)Nc4ccccc4N)cc3C(=O)N([C@@H](C)CO)C[C@H]2C)cc1 ?
Vaccinia stage: 15; Vaccinia stage Venus: 4

What do the screens show for `C[C@H]1CN([C@@H](C)CO)C(=O)c2cccc(NC(=O)Nc3ccccc3)c2O[C@@H]1CN(C)Cc1ccc(C(=O)Nc2ccccc2N)cc1`?
Vaccinia stage: 2; Vaccinia stage Venus: -2

How did CN1c2ccc(Br)cc2[C@H]2[C@H](CCN2C(=O)c2cccc(F)c2)[C@H]1CO do in these assays?
Vaccinia stage: -23; Vaccinia stage Venus: -15

Results for COc1ccc(NC(=O)N(C)C[C@@H]2OCCCC[C@@H](C)Oc3ccc(NS(=O)(=O)c4ccc(Cl)cc4)cc3C(=O)N([C@@H](C)CO)C[C@H]2C)cc1 ?
Vaccinia stage: -16; Vaccinia stage Venus: -10

Results for CC(C)NC(=O)N(C)C[C@H]1Oc2c(NS(=O)(=O)c3cn(C)cn3)cccc2C(=O)N([C@H](C)CO)C[C@@H]1C ?
Vaccinia stage: 10; Vaccinia stage Venus: 9

Entries shown so far that have a Cl atom, in the order listed:
How did C[C@@H]1CCCCO[C@@H](CN(C)S(=O)(=O)c2ccc(Cl)cc2)[C@H](C)CN([C@@H](C)CO)C(=O)c2cc(NC(=O)CCCN(C)C)ccc2O1 do in these assays?
Vaccinia stage: 6; Vaccinia stage Venus: -5

Results for CN1C(=O)c2cc(NC(=O)c3ccc(Cl)cc3)ccc2OC[C@@H]2O[C@H](CC(=O)O)CC[C@H]21 ?
Vaccinia stage: 13; Vaccinia stage Venus: 12

What do the screens show for `O=C(Cc1ccccn1)NCC[C@H]1CC[C@@H](NS(=O)(=O)c2ccc(Cl)cc2)[C@@H](CO)O1`?
Vaccinia stage: 0; Vaccinia stage Venus: 6

Results for COc1ccc(NC(=O)N(C)C[C@@H]2OCCCC[C@@H](C)Oc3ccc(NS(=O)(=O)c4ccc(Cl)cc4)cc3C(=O)N([C@@H](C)CO)C[C@H]2C)cc1 ?
Vaccinia stage: -16; Vaccinia stage Venus: -10

(listing goes on)
How did COCC#Cc1cnc2c(c1)C(=O)N([C@@H](C)CO)C[C@@H](C)[C@H](CN(C)C(=O)Nc1ccccc1F)O2 do in these assays?
Vaccinia stage: 20; Vaccinia stage Venus: 9

What do the screens show for `COc1ccc(CN(C)C[C@@H]2OCCCC[C@@H](C)Oc3ccc(NC(=O)Nc4ccc(F)cc4)cc3C(=O)N([C@@H](C)CO)C[C@@H]2C)cc1`?
Vaccinia stage: inconclusive

What do the screens show for `C[C@@H]1CN([C@H](C)CO)C(=O)c2cccc(NC(=O)Nc3ccc4c(c3)OCO4)c2O[C@@H]1CN(C)C`?
Vaccinia stage: 15; Vaccinia stage Venus: 11

Results for O=C(Nc1ccc2c(c1)[C@@H]1C[C@H](CC(=O)N3CCOCC3)O[C@H](CO)[C@@H]1O2)NC1CCCCC1 ?
Vaccinia stage: 17; Vaccinia stage Venus: 11

Results for COc1ccc(CNC(=O)C[C@H]2C[C@@H]3c4cc(NS(=O)(=O)c5ccc(F)cc5)ccc4O[C@@H]3[C@H](CO)O2)cc1 ?
Vaccinia stage: -6; Vaccinia stage Venus: -6

What do the screens show for `CCCNC(=O)N1C[C@H](C)[C@@H](OC)CN(C)C(=O)c2cc(NC(=O)CCC)ccc2OC[C@@H]1C`?
Vaccinia stage: 11; Vaccinia stage Venus: 9

What do the screens show for `C[C@H](CO)N1C[C@H](C)[C@@H](CN(C)S(=O)(=O)c2ccccc2F)OCc2ccccc2-c2c(n(C)c3ccccc23)C1=O`?
Vaccinia stage: 8; Vaccinia stage Venus: 0

How did C[C@@H]1CN([C@@H](C)CO)C(=O)c2ccccc2-c2ccccc2CO[C@@H]1CN(C)S(=O)(=O)c1cccc(C#N)c1 do in these assays?
Vaccinia stage: -13; Vaccinia stage Venus: -17

A draw from above in order of SMILES length, low to high.
How did COCC#Cc1cnc2c(c1)C(=O)N([C@@H](C)CO)C[C@@H](C)[C@H](CN(C)C(=O)Nc1ccccc1F)O2 do in these assays?
Vaccinia stage: 20; Vaccinia stage Venus: 9

How did C[C@@H]1CN([C@@H](C)CO)C(=O)c2ccccc2-c2ccccc2CO[C@@H]1CN(C)S(=O)(=O)c1cccc(C#N)c1 do in these assays?
Vaccinia stage: -13; Vaccinia stage Venus: -17

What do the screens show for `COc1ccc(CN(C)C[C@@H]2OCCCC[C@@H](C)Oc3ccc(NC(=O)Nc4ccc(F)cc4)cc3C(=O)N([C@@H](C)CO)C[C@@H]2C)cc1`?
Vaccinia stage: inconclusive
